Screens: PubChem, National Center for Advancing Translational Sciences (NCATS)
miR-21 reporter: miR-21 reporter, rising signal; HeLa miR-21 FLuc reporter, luciferase, 48 h; Potency, µM (titrated, usually from 38.3 µM), without a hit: top-dose reporter change, positive = more light; 340,000 tested, under 10 active; AID 2288; active = well fitted rising curve with a large enough effect; inconclusive = small, poorly fitted or top-dose-only effect; inactive = no such curve, though single readings can be large or run the other way;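 further: % of control where 0% means no effect; miR-21 action dims this reporter so a rising signal means less miR-21 action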
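Luminescence from a firefly luciferase reporter carrying a miR-21 binding site downstream, stably expressed under a CMV promoter in HeLa cells that make miR-21 endogenously, reports miRNA modulation after 48 h compound exposure up to approximately 40uM final.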
Rango complex inh: inhibitors of Rango-importin beta complex formation; AID 540263; Q14974; 0.031% of 340,000 active; Rango CFP/YFP FRET sensor + importin beta, 45 min; Potency, µM (titrated, usually from 92.2 µM), without a hit: at the top dose inhibition of complex formation; active = rising FRET ratio curve, often small or poorly fitted; inconclusive = mostly compound fluorescence or quenching in the first reads; inactive = flat curves in all reads;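 further: potency means the concentration at half of the fitted maximal effect; 0% = DMSO wells and 100% = buffer wells lacking importin beta; nearly all actives have a fitted effect of over 15% in size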
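FRET biosensor Rango (snurportin 1 IBB between N-terminal EYFP and C-terminal Cerulean), 50 nM in PBS/1 mM DTT/0.02% Tween-20/0.1% BSA, preincubated 5 min RT with compound; 0.125 microM importin beta added, 45 min RT, CFP/YFP FRET ratio read.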
Rango dissoc inh: inhibition of RanGTP-driven Rango-importin beta dissociation. AID 540253. 0.071% of 340,000 active. Biochemical FRET Rango-importin beta, RanGTP-induced dissociation. O95149+P62826. Potency, µM (series often up to 46.1 µM), inactives show at the highest dose activity change, negative = inhibition; active means falling FRET ratio curve, often poorly fitted, with flat reads before Ran was added; inconclusive means other falling curves, or compound fluorescence or quenching; inactive means flat or rising ratio curve;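 further: potency means the concentration at half of the fitted maximal effect; % of control where 0% means no effect; nearly all actives have a fitted effect of over 45% in size; -100% = wells without RanGTP and RCC1; the record marks most hits as doubtful in a second field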
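Rango (0.1 uM)–importin beta (0.25 uM) complex; RanGTP-RCC1 trigger; 45 min RT; CFP/YFP FRET read.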
GLA inh pH 4.5: blocks human alpha-galactosidase A at pH 4.5. 230,000 tested, under 10 active. purified enzyme, 4-MU-alpha-Gal fluorescence, pH 4.5. activity change, negative = inhibition, % at 105 µM; inconclusive = small, poorly fitted or top-dose-only inhibition, or a rising curve; inactive = flat fitted curve, though single readings scatter; no compound was filed as active;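 further: 0% = full activity with enzyme and -100% = basal without enzyme; dose as in the result columns while the protocol names 77 µM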
Target sequence (P06280 whole entry, looked up): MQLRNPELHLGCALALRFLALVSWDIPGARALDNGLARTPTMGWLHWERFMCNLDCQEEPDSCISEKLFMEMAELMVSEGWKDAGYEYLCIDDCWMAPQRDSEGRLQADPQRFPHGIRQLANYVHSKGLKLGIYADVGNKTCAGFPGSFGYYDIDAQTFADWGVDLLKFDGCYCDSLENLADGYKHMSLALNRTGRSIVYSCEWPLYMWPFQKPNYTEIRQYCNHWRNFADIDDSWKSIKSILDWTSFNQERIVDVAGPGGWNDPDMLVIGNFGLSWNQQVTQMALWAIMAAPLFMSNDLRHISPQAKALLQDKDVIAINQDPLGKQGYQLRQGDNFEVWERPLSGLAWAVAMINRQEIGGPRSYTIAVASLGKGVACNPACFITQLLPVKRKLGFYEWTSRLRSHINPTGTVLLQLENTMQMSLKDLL
* marks the source's active call; other numbers are inactive results.

Results for CN(C)CCOC(=O)c1cccc(Br)c1 ?
miR-21 reporter: 0%; Rango complex inh: -0.3%; Rango dissoc inh: -6%; GLA inh pH 4.5: 8

Results for Cc1nc(-c2ccccc2)sc1C1(C)CC(c2ccc(C#N)cc2)=NO1 (configuration not stated) ?
miR-21 reporter: -11%; Rango complex inh: 0.0%; Rango dissoc inh: 0%; GLA inh pH 4.5: 7

Results for O=[N+]([O-])c1ccccc1Nc1cccc(F)c1 ?
Rango complex inh: 0.2%; Rango dissoc inh: 14%

Results for CC1=CCC2C(=O)N(c3cc(C)on3)C(=O)C2C1 (configuration not stated) ?
miR-21 reporter: -23%; Rango complex inh: 4.1%; Rango dissoc inh: -21%; GLA inh pH 4.5: -1

What do the screens show for `O=C(c1cc(Br)c[nH]1)N1CCSCC1`?
miR-21 reporter: 1%; Rango complex inh: -0.1%; Rango dissoc inh: -12%

Results for Cc1cnn(-c2ccc3nnc(-c4ccc(Br)cc4)n3n2)c1 ?
miR-21 reporter: -5%; Rango complex inh: -0.3%; Rango dissoc inh: 11%; GLA inh pH 4.5: 2

Results for O=C(CSc1ncn[nH]1)c1ccc(OC(F)F)cc1 ?
miR-21 reporter: -3%; Rango complex inh: -2.3%; Rango dissoc inh: -1%; GLA inh pH 4.5: 9

Results for Cc1ccc(CCNC(=O)C2CCN(S(=O)(=O)c3ccc4c(c3)NC(=O)C(C)S4)CC2)cc1 (configuration not stated) ?
miR-21 reporter: 25%; Rango complex inh: 3.6%; Rango dissoc inh: 10%

How did Cc1cc2oc(=O)c(CC(=O)O)c(C)c2c2occ(C(C)(C)C)c12 do in these assays?
miR-21 reporter: -23%; Rango complex inh: 0.7%; Rango dissoc inh: -5%

Results for COc1ccc(NC(=O)C(CC(=O)O)Cc2ccccc2)cc1 (configuration not stated) ?
miR-21 reporter: -1%; Rango complex inh: -0.6%; Rango dissoc inh: -8%; GLA inh pH 4.5: -1

How did O=C(N/N=C/c1ccc(-c2ccc([N+](=O)[O-])cc2)o1)c1cccnc1 do in these assays?
miR-21 reporter: -3%; Rango complex inh: inconclusive; Rango dissoc inh: inconclusive; GLA inh pH 4.5: -21

How did Nc1nonc1-n1nnc(C(=O)N/N=C/c2ccccc2F)c1CN1CCOCC1 do in these assays?
Rango complex inh: -2.2%; Rango dissoc inh: inconclusive

How did Cc1ccc(F)cc1NC(=O)CCOc1ccccc1 do in these assays?
miR-21 reporter: -10%; Rango complex inh: -1.5%; Rango dissoc inh: -5%; GLA inh pH 4.5: -10

How did COc1ccc(C(=O)COc2ccc(C(C)=O)cc2OC)cc1OC do in these assays?
Rango complex inh: 7.2%; Rango dissoc inh: 7%

Results for CS(=O)(=O)c1ccc(Cl)c(NC(=O)COC(=O)CNC(=O)c2ccc(Br)o2)c1 ?
miR-21 reporter: -2%; Rango complex inh: -0.1%; Rango dissoc inh: 17%; GLA inh pH 4.5: -2

Results for CCOC(=O)C1=C(C)Nc2ncnn2C1c1ccccc1F (configuration not stated) ?
miR-21 reporter: 1%; Rango complex inh: 0.1%; Rango dissoc inh: 19%; GLA inh pH 4.5: -1

How did CCn1nnnc1SCC(=O)Nc1cccc(NC(C)=O)c1 do in these assays?
miR-21 reporter: 10%; Rango complex inh: 2.2%; Rango dissoc inh: 7%; GLA inh pH 4.5: 6

How did CC(C)(C)c1ccc2c(c1)OCC(C(=O)O)O2 (configuration not stated) do in these assays?
miR-21 reporter: -13%; Rango complex inh: 7.9%; Rango dissoc inh: 5%; GLA inh pH 4.5: -15

How did Cc1ccc(NC(=O)NCCCN2CCCC2=O)cc1 do in these assays?
miR-21 reporter: -21%; Rango complex inh: 1.3%; Rango dissoc inh: 1%; GLA inh pH 4.5: 3

Results for COC(=O)[C@]1(C)CCC[C@@]2(C)C3CC[C@@]4(C)C[C@]3(CCC21)CC(=O)N4Cc1ccc(OC)cc1 (some centres not stated) ?
Rango complex inh: 0.4%; Rango dissoc inh: 12%

The last 3 records of the part above are carried over, then new ones follow.
How did CC(C)(C)c1ccc2c(c1)OCC(C(=O)O)O2 (configuration not stated) do in these assays?
miR-21 reporter: -13%; Rango complex inh: 7.9%; Rango dissoc inh: 5%; GLA inh pH 4.5: -15

How did Cc1ccc(NC(=O)NCCCN2CCCC2=O)cc1 do in these assays?
miR-21 reporter: -21%; Rango complex inh: 1.3%; Rango dissoc inh: 1%; GLA inh pH 4.5: 3

Results for COC(=O)[C@]1(C)CCC[C@@]2(C)C3CC[C@@]4(C)C[C@]3(CCC21)CC(=O)N4Cc1ccc(OC)cc1 (some centres not stated) ?
Rango complex inh: 0.4%; Rango dissoc inh: 12%

What do the screens show for `Nc1c(-c2cccc(Cl)c2)cnn1-c1cccc(C(F)(F)F)c1`?
miR-21 reporter: -12%; Rango complex inh: -3.0%; Rango dissoc inh: 0%; GLA inh pH 4.5: -17

How did CC(=O)Nc1ccc(S(=O)(=O)N2CCSCC2)cc1 do in these assays?
miR-21 reporter: -4%; Rango complex inh: 0.2%; Rango dissoc inh: -4%; GLA inh pH 4.5: 2

How did COc1ccc(CNC(=O)c2ccc(S(=O)(=O)NCc3ccco3)cc2)cc1 do in these assays?
Rango complex inh: -3.9%; Rango dissoc inh: 9%

How did COc1ccc(CC(=O)Nc2ccc(S(=O)(=O)N3CCCC3)cc2)c(OC)c1 do in these assays?
Rango complex inh: 0.7%; Rango dissoc inh: 0%

What do the screens show for `CCCCn1c(CCNC(=O)c2ccco2)nc2ccccc21`?
miR-21 reporter: 10%; Rango complex inh: -4.0%; Rango dissoc inh: 0%

What do the screens show for `CC1(c2ccccc2Br)NC(=O)N(CC(=O)Nc2ccc(S(N)(=O)=O)cc2)C1=O` (configuration not stated)?
miR-21 reporter: 1%; Rango complex inh: -4.4%; Rango dissoc inh: -11%

Results for O=C(N1CCCCC1)C1(c2ccccc2)CCCCC1 ?
miR-21 reporter: 2%; Rango complex inh: 1.0%; Rango dissoc inh: 16%

What do the screens show for `CCn1cc(C(=O)OCc2ccccc2)c(=O)c2ccc(C)nc21`?
miR-21 reporter: -17%; Rango complex inh: -0.8%; Rango dissoc inh: 0%; GLA inh pH 4.5: -1

What do the screens show for `O=C(CN1CCN(S(=O)(=O)c2ccc(Br)cc2)CC1)Nc1ccccc1F`?
miR-21 reporter: 1%; Rango complex inh: -0.2%; Rango dissoc inh: 9%; GLA inh pH 4.5: -3

Results for Oc1nc(-c2ccc(Cl)cc2)n2ccncc12 ?
miR-21 reporter: -2%; Rango complex inh: -1.5%; Rango dissoc inh: 3%; GLA inh pH 4.5: 4

What do the screens show for `O=[N+]([O-])c1cc2c(cc1C=Nc1ccccc1)OCO2`?
miR-21 reporter: -3%; Rango complex inh: 3.1%; Rango dissoc inh: 3%; GLA inh pH 4.5: 2

How did Cc1ccccc1N=C(NOCc1ccccc1)c1nonc1N do in these assays?
miR-21 reporter: -13%; Rango complex inh: -2.1%; Rango dissoc inh: -4%; GLA inh pH 4.5: -3

Results for Cc1ccc(/C=C/C(=O)NCCCn2ccnc2)cc1 ?
miR-21 reporter: 0%; Rango complex inh: 1.9%; Rango dissoc inh: 2%; GLA inh pH 4.5: 3

What do the screens show for `O=c1c2ccccc2c(C=Nc2ccccc2O)c(O)n1-c1nccs1`?
miR-21 reporter: 19%; Rango complex inh: inconclusive; Rango dissoc inh: inconclusive; GLA inh pH 4.5: -5

How did Cc1cc(C)cc(C(=O)Nc2ccc(N3CCN(C(=O)c4ccco4)CC3)cc2)c1 do in these assays?
miR-21 reporter: 1%; Rango complex inh: 7.3%; Rango dissoc inh: 3%

What do the screens show for `COc1cccc(C2=NN(C(=O)c3cccs3)C(O)(C(F)(F)F)C2)c1` (configuration not stated)?
miR-21 reporter: -2%; Rango complex inh: -2.9%; Rango dissoc inh: inconclusive; GLA inh pH 4.5: 5

Results for O=[N+]([O-])c1cccc(-c2n[nH]c(=S)n2-c2ccc(Br)cc2)c1 ?
miR-21 reporter: -16%; Rango complex inh: 1.3%; Rango dissoc inh: 5%; GLA inh pH 4.5: -4

Results for Cn1c(N)c(N=O)c(=O)n(C)c1=S ?
Rango complex inh: -0.5%; Rango dissoc inh: -8%

What do the screens show for `O=C(CCCN1C(=O)CSc2ncccc21)N1CCN(c2cccc(C(F)(F)F)c2)CC1`?
miR-21 reporter: 9%; Rango complex inh: 3.1%; Rango dissoc inh: 3%; GLA inh pH 4.5: 2

Results for CCN(c1ccccc1)c1cc2ccccc2c(=O)[nH]1 ?
miR-21 reporter: 2%; Rango complex inh: inconclusive; Rango dissoc inh: inconclusive

What do the screens show for `CCC(CO)Oc1cc(NCc2ccccc2C(F)(F)F)c2ncn(C(C)C)c2c1` (configuration not stated)?
Rango complex inh: inconclusive; Rango dissoc inh: inconclusive

Results for COC(C/C=C\[C@H](O)[C@H](C)OCc1ccccc1)OC ?
Rango complex inh: 0.1%; Rango dissoc inh: -26%

What do the screens show for `COC(=O)c1cc(=O)n(Cc2ccc3c(c2)OCO3)c(=Nc2ccc(F)cc2)s1`?
miR-21 reporter: -3%; Rango complex inh: -2.6%; Rango dissoc inh: 13%; GLA inh pH 4.5: 2

How did Cc1ccc(OCCCN2C(=O)C(=O)c3cc(C)ccc32)cc1 do in these assays?
miR-21 reporter: -2%; Rango complex inh: inconclusive; Rango dissoc inh: 24%; GLA inh pH 4.5: 2

What do the screens show for `CCOC(=O)N1CCC(NC(=O)CCS(=O)(=O)c2ccc3c(c2)CCN3C(=O)CC)CC1`?
miR-21 reporter: 0%; Rango complex inh: -4.1%; Rango dissoc inh: -5%; GLA inh pH 4.5: 1

Results for O=C(CCC1CCCCC1)Nc1cc(C(F)(F)F)ccc1N1CCOCC1 ?
Rango complex inh: -2.1%; Rango dissoc inh: -4%

How did COc1cc(C)c(Cc2cnc(N)nc2N)cc1OC do in these assays?
miR-21 reporter: 11%; GLA inh pH 4.5: 4

Results for Cn1c(-c2ccccc2)cccc1=O ?
miR-21 reporter: -5%; Rango complex inh: -2.9%; Rango dissoc inh: 21%; GLA inh pH 4.5: -1

How did CCOc1ccc(Cn2nnc(C(=O)NCc3ccc(OC)cc3)c2N)cc1 do in these assays?
miR-21 reporter: -7%; Rango complex inh: 0.8%; Rango dissoc inh: 22%; GLA inh pH 4.5: 16

How did CCS(=O)(=O)Nc1c(C(=O)OC)[nH]c2ccccc12 do in these assays?
miR-21 reporter: 6%; Rango complex inh: 1.2%; Rango dissoc inh: -11%; GLA inh pH 4.5: 6

What do the screens show for `COC(=O)c1cc(C(=O)N2CCc3ccccc32)cc([N+](=O)[O-])c1`?
miR-21 reporter: -3%; Rango complex inh: 0.8%; Rango dissoc inh: 9%

What do the screens show for `Cc1ccc2cccc(Oc3ncnc4scc(-c5ccccc5)c34)c2n1`?
miR-21 reporter: 1%; Rango complex inh: -0.4%; Rango dissoc inh: 7%; GLA inh pH 4.5: 3

How did c1ccc(-c2n[nH]c(-c3ccccc3)c2-c2nc3ccccc3[nH]2)cc1 do in these assays?
miR-21 reporter: 11%; Rango complex inh: 2.7%; Rango dissoc inh: 4%; GLA inh pH 4.5: 5

Results for Cc1csc(NC(=O)c2cc(-c3ccco3)nc3ccccc23)n1 ?
miR-21 reporter: 5%; Rango complex inh: -5.3%; Rango dissoc inh: -6%; GLA inh pH 4.5: 5

How did O=C(c1cccs1)N1N=C(c2ccc(O)cc2)CC1c1ccccc1 (configuration not stated) do in these assays?
miR-21 reporter: -8%; Rango complex inh: 0.3%; Rango dissoc inh: 1%; GLA inh pH 4.5: 2

What do the screens show for `Cn1c2ccc(F)cc2c2ncn(Cc3ccco3)c(=O)c21`?
miR-21 reporter: -19%; Rango complex inh: -1.2%; Rango dissoc inh: 7%; GLA inh pH 4.5: 9

Grouped by structure: the compounds so far containing an aryl thioether with sulfur outside any ring.
Results for O=C(CSc1ncn[nH]1)c1ccc(OC(F)F)cc1 ?
miR-21 reporter: -3%; Rango complex inh: -2.3%; Rango dissoc inh: -1%; GLA inh pH 4.5: 9

How did CCn1nnnc1SCC(=O)Nc1cccc(NC(C)=O)c1 do in these assays?
miR-21 reporter: 10%; Rango complex inh: 2.2%; Rango dissoc inh: 7%; GLA inh pH 4.5: 6

An excerpt (hit frequency here may not be typical).
